From PubChem BioAssay
Cruzain inh noDet: inhibitors of Trypanosoma cruzi cruzain without detergent | P25779 | purified cruzain, Z-FR-AMC fluorescence, no detergent | Potency, µM, inactives show max response, negative = inhibition, actives largely listed as inhibitors | 200,000 tested, 2.3% active; active = well fitted curve in the direction sought with a large enough effect; inconclusive = small, poorly fitted or top-dose-only effect, or another doubt; inactive = no such curve, though single readings can be large; an effect the other way counts as inactive or inconclusive;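 also: plate controls were enzyme without inhibitor for no effect and buffer without enzyme for full effect; nearly all actives have a fitted effect of over 40% in size; top concentration of the series not given in the record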
Target sequence (P25779 123-467 limits assumed): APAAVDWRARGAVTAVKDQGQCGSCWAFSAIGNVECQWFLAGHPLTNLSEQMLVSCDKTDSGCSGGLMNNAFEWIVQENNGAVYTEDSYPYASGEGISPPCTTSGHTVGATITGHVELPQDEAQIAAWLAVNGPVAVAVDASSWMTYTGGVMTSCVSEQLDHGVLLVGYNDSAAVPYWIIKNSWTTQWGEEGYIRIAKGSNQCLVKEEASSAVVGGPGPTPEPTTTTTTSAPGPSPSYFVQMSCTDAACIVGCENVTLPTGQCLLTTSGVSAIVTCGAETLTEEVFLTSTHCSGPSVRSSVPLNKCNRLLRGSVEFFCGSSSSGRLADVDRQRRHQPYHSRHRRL
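Purified cruzain at 1.5 nM, pre-incubated 15 min with compound at room temperature in 100 mM sodium acetate pH 5.5, 5 mM DTT, 0.00005% Triton X-100. Reaction started with 2 uM Z-FR-AMC; AMC fluorescence increase over 60 s gives rate.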
Marburg entry inh: blocks Marburg virus binding to or entry into cells | Marburg virus pseudotyped entry inhibition, cell reporter; control for the full effect not named in the record; about a third of the inactives were read at about 46 µM | Potency, µM (doses to about 37.8 µM), inactives show top-dose activity change, negative = inhibition, usual class: inhibitors | 300,000 tested, 1.8% active; active = well fitted inhibition curve with a large enough effect; inconclusive = small, poorly fitted or top-dose-only effect, or effect the other way; inactive = flat fitted curve, though single readings scatter; tested in HEK293 cells; about a fifth of its hits are not listed in these tables; also: % is scaled to controls: 0 for no effect and ±100 for the full control effect; luciferase read-out
RE007 growth inh: less growth of the S. pombe RE007 Vpr strain; S. pombe RE007 Vpr strain, BacTiter-Glo ATP luminescence, 24 h; control for the full effect not named in the record; Potency, µM (titrated, usually from 92.2 µM), without a hit: at the highest dose activity change, negative = less growth; 360,000 tested, 0.21% active; active = well fitted falling curve with a large enough effect; inconclusive = small, poorly fitted or top-dose-only effect; inactive = no such curve, though single readings can be large or run the other way;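 also: % is scaled to controls: 0 for no effect and ±100 for the full control effect; nearly all actives have a fitted effect of over 50% in size; the assay follows cell death caused by Vpr and the record does not say whether a fall means rescue or toxicity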
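Fission yeast RE007 carrying one integrated HIV-1 vpr copy, seeded at OD 0.01 in PMG+AL medium with 23 nL pinned compound. Grown 24 h at 30 degrees; viability read by BacTiter-Glo luminescence after 5 min.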
NS1 inh: influenza NS1 inhibition. 270,000 tested, 0.4% active. S. cerevisiae slowed by influenza A NS1, growth recovery by OD600. Potency, µM (series often up to 46.1 µM), for the others: at the top dose activity, positive = more growth; also: actives are rising curves; nearly all actives have a fitted effect of over 50% in size
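Recovery from NS1-induced slow growth read by OD600 in budding yeast switched to galactose assay medium (pH 6.0, -URA) at 1:100 dilution. Compound 23 nl per well; the matching strain lacking NS1 serves as control.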
Lassa entry inh: inhibitors of Lassa virus binding or cell entry. Lassa virus pseudotype entry inhibition, cell reporter; control for the full effect not named in the record. Potency, µM (highest dose often 37.9 µM), for inactives: top-dose activity change, negative = inhibition, usual class: inhibitors. 300,000 tested, 1.2% active. AID 540256; active means well fitted inhibition curve with a large enough effect; inconclusive means small, poorly fitted or top-dose-only effect, or effect the other way; inactive means flat fitted curve, though single readings scatter; tested in HEK293 cells; also: % is scaled to controls: 0 for no effect and ±100 for the full control effect; nearly all actives have a fitted effect of over 50% in size; luciferase read-out
Cruzain Triton: cruzain (T. cruzi) inhibition with detergent | 200,000 tested, 0.43% active | Potency, µM, inactives show max response, negative = inhibition, actives largely listed as inhibitors | purified cruzain, Z-FR-AMC fluorescence, 0.01% Triton; active = well fitted curve in the direction sought with a large enough effect; inconclusive = small, poorly fitted or top-dose-only effect, or another doubt; inactive = no such curve, though single readings can be large; an effect the other way counts as inactive or inconclusive;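 also: plate controls were neutral wells for no effect and buffer without enzyme for full effect; nearly all actives have a fitted effect of over 40% in size; top concentration of the series not given in the record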
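Purified cruzain (1.5 nM final) was preincubated with compounds for 15 min at room temperature in 100 mM sodium acetate pH 5.5, 5 mM DTT, 0.01% Triton X-100. Reaction started with 2 uM Z-FR-AMC; AMC fluorescence change over 60 s gave activity.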
SARS PLpro yeast: blocks SARS-CoV papain-like protease in a yeast assay. S. cerevisiae expressing SARS-CoV PLpro, growth rescue; control for the full effect not named in the record. Potency, µM (titrated, usually from 32.9 µM), without a hit: at the highest dose activity, positive = growth rescue. 330,000 tested, 0.19% active. AID 485353; also: 0% is about no effect; nearly all actives have a fitted effect of over 55% in size; growth read by luminescence after 48 h
StopGo reporter: lowers the luciferase signal of an FMDV 2A StopGo reporter | human cells with a luciferase reporter of 2A StopGo recoding; control for the full effect not named in the record | Potency, µM (titrated, usually from 57.9 µM), inactives show at the highest dose signal change, negative = less light | 410,000 tested, 1.2% active | AID 1159524; active = well fitted falling curve with a large enough effect; inconclusive = small, poorly fitted or top-dose-only effect; inactive = no such curve, though single readings can be large or run the other way; tested in HEK293T cells; also: % is scaled to controls: 0 for no effect and ±100 for the full control effect; nearly all actives have a fitted effect of over 45% in size; luciferase light after 4 h
* marks the source's active call; other numbers are inactive results; ? = inconclusive; / = not tested or not shown; & = joins results of further samples; [ ] = another dose, or the depositor's remark. Unless noted, calls follow the shape of the dose curve; as a rule, active means well fitted rising curve with a large enough effect; inconclusive means small, poorly fitted or top-dose-only effect; inactive means no such curve, though single readings can be large or run the other way. Potency is read from the fitted curve at half-maximal effect. Not a hit list, and some 4.5% of all compounds hit somewhere here.

SMILES | Cruzain inh noDet | Marburg entry inh | RE007 growth inh | NS1 inh | Lassa entry inh | Cruzain Triton | SARS PLpro yeast | StopGo reporter
O=S(=O)(Nc1ccc(Cl)cn1)c1cnc(Cl)c(Br)c1 | / | 6%[46.1 µM] | 6% | -30% | ? | / | -3% | -12%
OC1C(O)C(O)C(O)C(O)C1O (configuration not stated) | 0% | / | 2%[18.4 µM] | / | / | -1.6% | / | -13%&-7%&-11%
CC(C)C(c1nnnn1C(C)(C)C)N1CCN(Cc2cccnc2)CC1 (configuration not stated) | / | / | -3% | 1% | / | / | 1% | -2%
O=C(CN1C(=O)COc2ccc(S(=O)(=O)N3CCOCC3)cc21)NCc1ccc(F)cc1 | -6% | / | / | / | ? | -0.9% | / | -1%
Nc1ccc(C(=O)Nc2ccc(OC(F)(F)C(F)F)c(NC(=O)c3ccc(N)cc3)c2)cc1 | -9% | -1% | -10% | 22% | -14% | -8.8% | 4% | 57%[activator]
COC(C(=O)Nc1ccnn1C1CCN(Cc2cccc(C)n2)CC1)c1ccccc1 (configuration not stated) | / | / | -5% | 2% | / | / | 1% | 0%
Cc1ccc(C(=O)NC(Cc2c[nH]c3ccccc23)C(=O)O)cc1 (configuration not stated) | -11% | 4% | -1% | 7% | -3% | -1.3% | 2% | 29%
Cc1ccc(-c2noc(C3CCCN(C(=O)c4ccccc4Br)C3)n2)o1 (configuration not stated) | / | ? | 3% | ? | ? | / | -2% | 52%[activator]
CCOc1cccc(C(=O)Nc2cnn(Cc3ccccc3)c2)c1 | 1% | ? | 23% | -5% | ? | -2.2% | 6% | -9%
CC(=O)C1=C(C)NC(SCc2ccc(C#N)cc2)=C(C#N)C1c1ccco1 (configuration not stated) | -22% | -3% | / | -18% | -10% | -7.6% | 2% | ?
CC(C)(C)C1CCC(=NNC(=O)c2cc3c(s2)CCCC3)CC1 (configuration not stated) | 5% | -29% | 17% | 5% | ? | 1.0% | -9% | -11%
CSc1ccc(C(=O)C2CCCN(S(=O)(=O)N(C)C)C2)cc1 (configuration not stated) | / | 11%[46.1 µM] | 15% | -5% | -3% | / | -1% | ?
CCN(c1ccc(Cl)cc1)S(=O)(=O)c1nnc(NC(=O)C(C)C)s1 | 7% | -3%[46.1 µM] | 4% | 1% | 24%&-15%[46.1 µM] | -2.0% | 0% | -13%&-11%
CCOC(=O)c1cc(-c2ccc(F)cc2)n(CCC(=O)Nc2cc(OC)cc(OC)c2)c1C | 1% | / | / | / | -8%[46.1 µM] | -7.3% | / | 0%
Cc1cccc(C(=O)O/N=C/c2ccc(Br)cc2)c1 | / | -12%[46.1 µM] | -13% | / | -2% | / | -4% | 40%[activator]
CN1CCCN(C(=O)CNC(=O)c2ccccc2F)CC1 | / | 1% | -13% | / | 1% | / | ? | 21%
Cc1ccc(S(=O)(=O)N2CC(O)CC2C(=O)NCc2ccc3c(c2)OCO3)cc1 (configuration not stated) | / | 16%[46.1 µM] | -6% | / | 14% | / | 1% | 8%
COc1ccc(NC2C=CS(=O)(=O)C2)c(OC)c1 (configuration not stated) | 7% | -4% | 6% | -5% | 4% | -1.1% | 1% | /
Cc1cc([N+](=O)[O-])ccc1NC(=O)CCC(=O)N1CCCCC1 | / | -18%[46.1 µM] | 1% | -11% | 2%[46.1 µM] | / | 2% | 9%
CC(=O)c1ccc(NC(=S)NC(NC(=O)c2ccco2)C(Cl)(Cl)Cl)cc1 (configuration not stated) | -9% | 8% | 6% | 11% | -8% | ? | 5% | -15%
CCc1ccc(CNC(=O)c2ccc(-c3nc(CSc4ccc(C)cc4)c(C)o3)cc2)cc1 | ? | / | / | / | 9%[46.1 µM] | -1.9% | / | 35%[activator]
COc1ccc(OCCSc2nnc(-c3ccccc3)n2N)cc1 | -9% | -16% | 17% | -8% | -3% | 7.0% | 4% | -14%
COCCNC(=O)CSc1nnc(NC(=O)C2CC(=O)N(c3ccccc3OC)C2)s1 (configuration not stated) | / | 3% | 3% | 21% | 11% | / | / | -24%
COc1ccc(C(=O)NCC(=O)OCc2csc(-c3ccccc3)n2)cc1 | 3% | 30% | 1% | -15% | -1% | -16% | -8% | 19%
Cc1ccc(CSc2nnc(-c3ccncc3)n2C)cc1 | -3% | 2% | 2% | 0% | -16% | 0.7% | 12% | -5%

Going on with the list:
SMILES | Cruzain inh noDet | Marburg entry inh | RE007 growth inh | NS1 inh | Lassa entry inh | Cruzain Triton | SARS PLpro yeast | StopGo reporter
CC(C)C(c1nnnn1Cc1ccc(F)cc1)N1CCN(C2CCCC2)CC1 (configuration not stated) | / | 3%[46.1 µM] | -11% | 0% | ? | / | 0% | 8%
CCN(CC)C(=O)c1c[nH]c2ccc(S(=O)(=O)Nc3cc(C)cc(C)c3)cc2c1=O | 13% | -1%[46.1 µM] | -13% | 7% | 1% | 3.0% | 3% | 11%
Cc1c(Cl)cccc1NC(=O)Cn1c(-c2ccc(F)cc2)noc1=O | / | / | -2% | -1% | / | / | 0% | 10%
O=S(=O)(NCc1cccs1)c1cccc2cccnc12 | 3% | -11% | 1% | 4% | 2% | 4.3% | 6% | 39%[activator]
O=C(N/N=C/c1cc(Cl)cc(Cl)c1O)c1ccncc1 | / | / | -24% | -72% | / | / | -7% | -14%
Cc1ccc2oc(=O)c(/C=C(\O)CC(C)C)nc2c1 | -10% | -11% | -14% | 15% | -17% | -4.7% | -2% | -4%
Cc1[nH]c(=S)c(C#N)c(C)c1Cc1ccc(Cl)cc1Cl | / | / | 7% | 11% | / | / | 0% | -18%
Cc1c(Cl)cccc1NC(=O)C(=O)NNC(=O)c1ccccc1F | / | -3%[46.1 µM] | ? | / | 0%[46.1 µM] | / | -4% | 7%
O=C(NCc1ccccn1)Nc1ccc(Cl)cc1Cl | / | / | -6% | -2% | / | / | -5% | 66%[activator]
Cc1cc(C)cc(NS(=O)(=O)c2cnc(Cl)c(Cl)c2)c1 | -6% | 2% | 8% | -120% | 1% | -10% | -20% | 14%
CCOC(=S)NC(=O)c1sc2ccccc2c1Cl | 7% | 26% | ? | -124% | 6% | -3.8% | -13% | 24%
Cc1ccc(-c2n[nH]c(=S)n2/N=C/c2ccncc2)cc1 | / | ? | -3% | / | 1% | / | -3% | -21%
O=C(CCC(=O)N1CCCCCC1)Nc1ccc([N+](=O)[O-])cc1 | / | 6%[46.1 µM] | 7% | -4% | 1%[46.1 µM] | / | -2% | 5%
CC(C)(C)c1ccc(/C=C2\SC(=O)N=C2N)cc1 | / | 9%[46.1 µM] | 2% | / | -2%[46.1 µM] | / | 4% | -2%
CC1=C(C)CC2(C(=O)NC(=O)NC2=O)C(C)C1 (configuration not stated) | / | 22% | 13% | / | 12% | / | / | -20%
CCOc1ccc(N(CC(=O)NCCSCc2ccccc2)S(=O)(=O)c2ccccc2)cc1 | / | / | 12% | 3% | / | / | -8% | 0%
CC1CCc2sc(C(=O)OCC(=O)NCc3ccc(F)cc3)cc2C1 (configuration not stated) | -2% | ? | -4% | -10% | ? | 0.7% | -19% | 0%
Cc1ccc2c(c1)c1c3n2CCCNC3CCC1 (configuration not stated) | -9% | ? | -3% | 15% | 3% | 4.6% | 0% | -17%
O=C(Nc1c(C(=O)N2CCN(c3ccccc3F)CC2)oc2ccccc12)c1ccc(Br)o1 | ? | ? | / | / | -1%[46.1 µM] | -8.9% | / | 40%[activator]
COc1ccccc1NC(=O)CSc1nc2ccccc2c(=O)n1CCNC(C)=O | 18% | 6% | -1% | -20% | 5% | -0.2% | 0% | -22%
COc1cc2cc(CN(CCN3CCCC3)C(=O)Nc3ccccc3Cl)c(=O)[nH]c2cc1OC | -5% | -19% | 0% | 6% | -1% | -5.0% | 4% | -10%
CCCCC(=O)NCCNC(=O)c1cc(OCC(F)(F)F)ccc1OCC(F)(F)F | -24% | 1% | 7% | 2% | 1% | 1.7% | -5% | -17%
Cc1cc(OC(C)C(=O)N(Cc2ccco2)Cc2ccccc2F)cc(C)c1Cl (configuration not stated) | -7% | -13%[46.1 µM] | / | / | 3%[46.1 µM] | -14% | / | -15%
CCCOc1ccc(CNC(=O)C(C)n2nc(C)n3c(cc4occc43)c2=O)cc1 (configuration not stated) | 22% | 9%[46.1 µM] | / | / | / | -1.5% | / | -17%
Cc1cccc(C)c1NC(=O)C1CCCN1S(=O)(=O)c1ccccc1 (configuration not stated) | -6% | -13%[46.1 µM] | -26% | -6% | -1%&-14%[46.1 µM] | 1.4% | 1% | 8%&-12%
Nn1c(Cc2ccccc2)nc2ccccc2c1=O | / | 9% | 3% | / | 24% | / | / | -8%
O=C(O)CN(CC(=O)O)CC(=O)O | 5% | / | 21% | / | / | 5.5% | / | -20%

Molecules shown so far that contain a furan ring, fused or not:
SMILES | Cruzain inh noDet | Marburg entry inh | RE007 growth inh | NS1 inh | Lassa entry inh | Cruzain Triton | SARS PLpro yeast | StopGo reporter
Cc1ccc(-c2noc(C3CCCN(C(=O)c4ccccc4Br)C3)n2)o1 (configuration not stated) | / | ? | 3% | ? | ? | / | -2% | 52%[activator]
CC(=O)C1=C(C)NC(SCc2ccc(C#N)cc2)=C(C#N)C1c1ccco1 (configuration not stated) | -22% | -3% | / | -18% | -10% | -7.6% | 2% | ?
CC(=O)c1ccc(NC(=S)NC(NC(=O)c2ccco2)C(Cl)(Cl)Cl)cc1 (configuration not stated) | -9% | 8% | 6% | 11% | -8% | ? | 5% | -15%
O=C(Nc1c(C(=O)N2CCN(c3ccccc3F)CC2)oc2ccccc12)c1ccc(Br)o1 | ? | ? | / | / | -1%[46.1 µM] | -8.9% | / | 40%[activator]
Cc1cc(OC(C)C(=O)N(Cc2ccco2)Cc2ccccc2F)cc(C)c1Cl (configuration not stated) | -7% | -13%[46.1 µM] | / | / | 3%[46.1 µM] | -14% | / | -15%
CCCOc1ccc(CNC(=O)C(C)n2nc(C)n3c(cc4occc43)c2=O)cc1 (configuration not stated) | 22% | 9%[46.1 µM] | / | / | / | -1.5% | / | -17%
